Screening data: PubChem BioAssay, National Center for Advancing Translational Sciences (NCATS)
ClpP mod – qHTS Assay for Activators of ClpP | purified B. subtilis ClpP, FRET peptide cleavage, 20 min | Potency, µM (series often up to 57.5 µM), without a hit: top-dose activity change, negative = active | hit rate 1.9% among 340,000 | AID 651965, 2013; active = well fitted falling curve with a large enough effect; inconclusive = small, poorly fitted or top-dose-only effect; inactive = no such curve, though single readings can be large or run the other way; also: the source files actives as falling curves though it sought activators and does not explain the sign; nearly all actives have a fitted effect of over 65% in size; many hits overshoot -100%
Target sequence (P80244 whole entry, looked up): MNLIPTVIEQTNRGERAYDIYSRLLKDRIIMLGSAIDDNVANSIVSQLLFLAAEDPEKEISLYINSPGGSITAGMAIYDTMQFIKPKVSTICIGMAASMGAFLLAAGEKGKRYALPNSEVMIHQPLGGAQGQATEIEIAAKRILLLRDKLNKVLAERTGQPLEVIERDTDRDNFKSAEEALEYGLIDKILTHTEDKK
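FRET quenching reversal measured ClpP activation: 10 microg/mL B. subtilis ClpP at pH 8 with the FRET-FV decapeptide, read at 430 nm after 320 nm excitation. The 20-min minus 0-min signal was scaled between DMSO/no-enzyme wells and ADEP (5.8 microM final).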
PINK1 modulator – A Quantitative High throughput Screen to Identify Chemical Modulators of PINK1 Expression. PINK1 immunofluorescence, high-content cytometry, 24 h. Potency, µM (series often up to 76.6 µM), for inactives: at the highest dose activation (PINK1 increase), hits mostly activators. hit rate 0.2% among 410,000; active = well fitted activation curve with a large enough effect; inconclusive = small, poorly fitted or top-dose-only effect; inactive = flat fitted curve, though single readings scatter; cell line not stated here;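 also: % of control where 0% means no effect; nearly all actives have a fitted effect of over 65% in size; a mitochondrial uncoupler was the plate control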
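Stable cell line, 250 cells/well, 12 h attachment; compounds pinned at 5 concentrations, 24 h; CCCP control. Fixed with nuclear dye, primary antibodies 12 h at 10 degrees C, secondary plus cell stain; laser-scanning cytometer read.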
* marks the source's active call; other numbers are inactive results; ? = inconclusive. Potency is read from the fitted curve at half-maximal effect. Some of the compounds tested; count on the stated rates, not on these rows.

SMILES	ClpP mod	PINK1 modulator
O=C(CCC1N=C2c3ccccc3N=C(SCc3ccc(F)cc3)N2C1=O)N1CCN(c2ccccc2)CC1 (stereo not given)	3.8%	-2.0%
Cn1cnc(S(=O)(=O)N2CCCC(C(=O)Nc3cccc(C#N)c3)C2)c1 (stereo not given)	1.0%	-1.1%
COc1ccc(OC)c(NC(=O)c2c(NCc3ccc(OC)c(OC)c3)sc3c2CCC3)c1	-0.5%	0.9%
Cc1cc(C)c2c(c1)c(C)cc1nnc(SCc3ccccc3C#N)n12	-5.5%	-0.1%
CC(C)NC(=O)CCCN1C(=O)CCn2nc(-c3cccn3C)cc21	-3.1%	0.7%
O=C(NCc1ccccc1Cl)c1cc2ccccc2o1	-1.2%	1.5%
Cc1ccc(NC(=O)c2sc3nc(-c4ccc(F)cc4)cn3c2C)c(C)c1	?	-1.1%
Cn1nnc2c(NCc3c(F)cccc3F)ncnc21	-0.2%	-9.0%
COc1ccc(CNC(=O)Cn2c(=O)nc(-c3ccccc3F)c3cc(Cl)ccc32)cc1OC	1.5%	0.0%
COc1ccc(CNC(=O)c2cc(Nc3ccccc3C)nc3ccccc23)cc1	186%	7.5%
O=C(CCc1ccccc1)NC1CC(=O)N(c2ccccc2)C1 (stereo not given)	1.0%	0.3%
COc1cc(C2CC(=O)N(Cc3ccc(F)cc3)c3ccccc3S2)cc(OC)c1OC (stereo not given)	0.4%	16%
COc1ccc(CCNC(=O)C2CCCN(c3nc4c(C)cc(C)cc4s3)C2)cc1OC (stereo not given)	3.7%	1.0%
COCCCNC(=O)c1c(-c2ccccc2)c(-c2ccccc2)nn(C)c1=O	-1.4%	0.0%
CCc1ccc(-n2nc(CO)c(C(=O)NCc3cccnc3)n2)cc1	?	1.2%
CCc1ccc(CNC(=O)C(CC)n2ccc3cc(S(=O)(=O)N4CCCCC4)ccc32)cc1 (stereo not given)	-3.7%	-1.1%
COc1ccccc1C(=O)n1nc(-c2ccccc2)nc1NCc1ccc(Cl)cc1	-8.1%	-0.9%
CC(=O)c1ccc(NC(=O)COc2ccccc2-c2nc(-c3ccc(C)cc3)no2)cc1	-2.5%	-0.5%
O=C(Cn1c(SCCOc2ccccc2)nc2ccccc21)N1CCOCC1	-1.1%	1.2%
Cc1ccc(CNC(=O)NC2COc3ccccc3C2)cc1 (stereo not given)	0.0%	1.2%
COc1ccccc1C(=O)NC1=NC(c2ccc(Br)cc2)CC(=O)N1 (stereo not given)	32µM*	-1.1%
CCCc1cnc2c(c1SCC(=O)NCc1ccc(C)cc1)c(=O)n(C)c(=O)n2C	0.0%	-0.3%
CCC(C)NC(=O)c1ccccc1NC(=O)C1CCN(S(=O)(=O)Cc2ccccc2)CC1 (stereo not given)	-16%	0.2%
CCOC(=O)CC(NC(=O)Cn1nnc(-c2ccc(C(F)(F)F)cc2)n1)c1ccc(C)cc1 (stereo not given)	3.0%	4.7%
Cc1ccc(C)c(Nc2nc(-c3ccccc3)c3cc(Br)ccc3n2)c1	-1.5%	7.7%
CC(C)c1ccc(Cc2cn3cc(-c4cc5ccccc5oc4=O)nc3s2)cc1	5.5%	8.5%
COc1ccc(-c2noc(CSc3nnc(Cc4ccccc4)n3-c3ccccc3)n2)cc1OC	-16%	-0.5%
COc1ccc(NC(=O)C2CCN(S(=O)(=O)c3c(C)noc3/C=C/c3cccs3)CC2)cc1Cl	-2.8%	0.9%
COc1ccc(CCNC(=O)Cn2ncc3c(C)n(Cc4ccccc4F)c(C)c3c2=O)cc1OC	-19%	2.6%
COc1ccc(CCNC(=O)Cc2ccc(NC(=O)N3CCSc4ncccc43)cc2)cc1OC	-8.8%	0.3%
Cc1ccc(C)c(CN2C(=O)C(O)(c3c[nH]c4ccccc34)c3ccccc32)c1 (stereo not given)	-5.2%	1.8%
O=C(C1CCC(Cn2c(=O)c3sccc3n(Cc3cccc(F)c3)c2=O)CC1)N1CCOCC1 (stereo not given)	-1.5%	-0.7%
Cc1ccc(Cl)cc1N1CCN(C(=O)Cn2ncc3c4ccccc4n(C)c3c2=O)CC1	-13%	0.3%
N#C/C(=C/c1ccc(Cl)cc1)c1nc(-c2ccc(Br)cc2)cs1	2.7%	2.9%
COc1ccc(C(=O)N2CCN(c3nc4c(C)c(Cl)ccc4s3)CC2)c(OC)c1	-0.6%	0.1%
CC1CCc2nc3ncn(Cc4ccc(Cl)cc4)c(=O)c3cc2C1 (stereo not given)	-3.1%	1.9%
COCCN1Cc2cccc(C(=O)Nc3ccc(C)cc3C)c2C1=O	0.0%	0.4%
CCC(O)c1nc2ccccc2n1Cc1cc(C)ccc1C (stereo not given)	1.1%	0.7%
COc1ccc(N2CCN(C(=O)c3ccc(-c4nc(COc5ccccc5)c(C)o4)cc3)CC2)cc1	-0.4%	0.8%
C[N+](C)(CCCCCI)c1ccc(/C=C/c2nc3ccccc3s2)cc1	1.9%	?
CCCOc1ccc(-c2nn(-c3ccccc3)cc2C2NC(=O)NC(C)=C2C(=O)OC)cc1 (stereo not given)	-7.3%	-3.9%
CCSC1=NC2(CCN(C(=O)NC3CCCCC3)CC2)N=C1c1ccc(Cl)cc1	1.6%	1.9%
CCOC(=O)C1CCCN(c2nc3c(S(=O)(=O)c4ccc(C)c(C)c4)nnn3c3ccc(Cl)cc23)C1 (stereo not given)	4.4%	-0.6%
Cc1nn(CC(=O)N2CCN(c3ccccc3)CC2)c(=O)c2cc3cc(F)ccc3n12	-9.0%	0.0%
Cc1cc(N2CCC(C)CC2)nc2ccc(NC(=O)Cc3c(F)cccc3Cl)cc12	?	2.8%
CCOC(=O)[C@]12CCCC=C1N(Cc1ccc3c(c1)OCO3)C(=O)[C@H](CC(=O)N1CCOCC1)C2	-0.2%	-0.6%
CCN(Cc1ccccc1)S(=O)(=O)c1ccc(F)c(C(=O)Nc2cc(C(F)(F)F)ccc2Cl)c1	-3.4%	-1.0%
COc1cc(C2Oc3nc(SC)nnc3-c3ccccc3N2C(C)=O)cc(Cl)c1OC (stereo not given)	0.5%	1.1%
C=CCn1c(SCC)nc2ccccc2c1=O	-3.5%	0.0%
COc1ccccc1NC(=O)c1cc(S(=O)(=O)NCCc2ccccc2)ccc1F	-2.3%	0.6%
Next section
SMILES	ClpP mod	PINK1 modulator
COc1ccc(C2=NC3(CCCCC3)N(CC(=O)Nc3ccc(C(C)C)cc3)C2=O)cc1	-5.8%	1.8%
CCOc1ccccc1CN(CCc1ccc2c(c1)OCO2)Cc1cc(OC)c(OC)cc1OC	-2.5%	0.2%
Cc1cc(C)c2c(=O)cc(C(=O)Nc3ccc(S(=O)(=O)N(C)Cc4ccccc4)cc3)oc2c1	0.5%	2.0%
O=C(NCCC1=CCCCC1)c1ccc2c(=O)n3nc(Nc4ccccc4)sc3nc2c1	-1.5%	1.6%
Cn1cc(CN(C(=O)Nc2ccc(Cl)c(Cl)c2)C2CCCCC2)c2ccccc21	0.5%	-0.8%
CNC(=O)COc1ccccc1C(=O)Nc1ccccc1	-9.2%	-0.7%
CCOC(=O)c1c(C)[nH]c(C)c1S(=O)(=O)N1CCCC(C(=O)Nc2cccc(CC)c2)C1 (stereo not given)	0.6%	0.2%
COc1cc(OC)c(N(C)C(=O)c2sc3nc4n(c(=O)c3c2C)CCCCC4)cc1Cl	1.3%	1.6%
CCCCn1nnnc1C(c1cc2ccccc2o1)N(C)Cc1ccc(Cl)cc1 (stereo not given)	-3.2%	1.7%
CN(C(=O)Cn1c(=O)n(CCCS(=O)(=O)C2CCCCC2)c(=O)c2ccccc21)c1ccccc1	-2.4%	2.5%
CCOc1ccc(NS(=O)(=O)c2ccc3[nH]cc(C(=O)N4CCCCCC4)c(=O)c3c2)cc1	-8.9%	2.9%
COc1cccc(-c2nc(SCc3cccc(Br)c3)n3[nH]c(=O)cc3n2)c1	0.3%	-1.0%
COc1ccccc1N1CCN(C(=O)CSc2nc(-c3ccc(C(C)C)cc3)no2)CC1	-4.6%	-1.2%
COc1cccc(-n2c(=O)c3sc4ccccc4c3n(CC(=O)Nc3ccccc3C)c2=O)c1	-20%	5.0%
O=S(=O)(Nc1cccc(-c2ccc(N3CCOCC3)nn2)c1)c1ccc(F)cc1F	-3.6%	2.0%
COCCCNC(=O)NC(CCC(C)C)c1c(-n2cccc2)sc2c1CCN(C)C2 (stereo not given)	-7.7%	2.6%
CCc1ccc(-n2nnc(-c3nc(-c4cccs4)no3)c2N)cc1	0.7%	0.4%
COc1ccc(Cl)cc1NC(=O)c1cnc(N2CCCCC2)c2ccccc12	-16%	0.1%
COc1ccc(NC(=O)C(c2ccccc2)N(C)C(=O)/C=C\c2ccc3c(c2)OCO3)cc1 (stereo not given)	3.6%	-2.1%
Cc1ccc(C)c(CN2CCCN(CC(=O)Nc3ccc(C)c(C)c3)S2(=O)=O)c1	0.4%	1.6%
CCc1ccc(NC(=O)c2cnc3c(-c4ccccc4)c(C)nn3c2C)cc1	-1.1%	0.1%
CCCCSCCCNC(=O)c1c[nH]c2ccc(S(=O)(=O)Nc3cccc(OC)c3)cc2c1=O	1.0%	-0.7%
Cc1ccc(CCNC(=O)c2nnc(Cc3cccc(F)c3)o2)cc1	0.9%	0.3%
COc1ccc(S(=O)(=O)NCCc2sc3nc(-c4ccc(C)cc4)nn3c2C)cc1C	-2.1%	-0.8%
O=C(CSc1c2c(nc3ccc(Cl)cc13)CCCC2)NCc1ccccc1Cl	-1.2%	0.7%
Cn1nnnc1SCCNCc1ccc(OCc2ccccc2)cc1	-0.3%	-0.7%
O=c1c2sc3ccccc3c2n(Cc2ccc(F)cc2)c(=O)n1Cc1ccccc1	-9.7%	0.3%
Cc1cc(N2CCN(c3ccc(F)cc3)CC2)n2nc(-c3ccc(Cl)cc3)nc2n1	-15%	1.7%
COc1ccccc1N1CCN(Cc2nnc(-c3ccccc3C)o2)CC1	1.2%	1.0%
COC(=O)c1ccc2c(=O)n3nc(Nc4ccc(F)cc4F)sc3nc2c1	-15%	0.0%
COc1cc(-c2oc3ccc(C)cc3c(=O)c2O)cc(OC)c1OC	-12%	-0.9%
O=C(NCCc1ccccc1)c1nn(-c2ccccc2F)nc1CO	-4.9%	0.6%
Cc1cc(C)cc(-n2ccnc2SCC(=O)Nc2ccc(C)c(Cl)c2)c1	-0.4%	7.2%
COc1ccc(CC(=O)N2CC(=O)Nc3ccc(F)cc3C2c2ccccc2)cc1 (stereo not given)	-3.4%	-1.7%
Cc1ccc(Cl)cc1-n1c(=O)c2sc3ccccc3c2n(Cc2ccccc2)c1=O	?	2.8%
CCOc1ccc(Cn2c(CNS(=O)(=O)c3c(C)cc(C)cc3C)nc3cccnc32)cc1	-3.7%	-1.5%
CC(=O)Nc1ccc(S(=O)(=O)Nc2ccc(-c3cn4c(C)csc4n3)cc2)cc1	-0.8%	-1.9%
CCc1ccccc1N(CC)C(=O)c1cc2c(s1)-c1ccccc1SC2	14µM*	1.6%
Cc1cccc(C)c1NC(=O)c1cc(S(=O)(=O)N2CCc3ccccc3C2)ccc1F	-4.1%	2.1%
CCOC(=O)c1ccc(NC(=O)Cn2cc(C(=O)c3ccc(Cl)cc3)c(=O)c3ccc(C)nc32)cc1	1.9%	?

By substructure: the entries above with two or more sulfur atoms (5)
SMILES	ClpP mod	PINK1 modulator
COc1ccc(NC(=O)C2CCN(S(=O)(=O)c3c(C)noc3/C=C/c3cccs3)CC2)cc1Cl	-2.8%	0.9%
CCCCSCCCNC(=O)c1c[nH]c2ccc(S(=O)(=O)Nc3cccc(OC)c3)cc2c1=O	1.0%	-0.7%
COc1ccc(S(=O)(=O)NCCc2sc3nc(-c4ccc(C)cc4)nn3c2C)cc1C	-2.1%	-0.8%
CC(=O)Nc1ccc(S(=O)(=O)Nc2ccc(-c3cn4c(C)csc4n3)cc2)cc1	-0.8%	-1.9%
CCc1ccccc1N(CC)C(=O)c1cc2c(s1)-c1ccccc1SC2	14µM*	1.6%

More results
SMILES	ClpP mod	PINK1 modulator
COc1cccc(-c2n[nH]c3c2C(c2ccccn2)N(C)C3=O)c1 (stereo not given)	-3.6%	0.6%
CCc1ccc(C2CC(=O)c3c([nH]c(C(=O)OC4CCCCCC4)c3C)C2)cc1 (stereo not given)	0.5%	1.6%
O=c1c2sccc2n(Cc2cc(=O)n3ccccc3n2)c(=O)n1-c1cccc(C(F)(F)F)c1	4.2%	-1.1%
Cc1ccccc1-c1nc(SCC(=O)NCc2ccco2)c2c(=O)n(C)c(=O)n(C)c2n1	-1.0%	1.3%
Cc1ccc(NC(=O)CCC(=O)N2Cc3ccccc3Oc3ncccc32)c(C)c1	-1.9%	0.0%
CN(C)c1ccc(C(CNC(=O)Cc2ccc(Cl)cc2)N2CCOCC2)cc1 (stereo not given)	0.7%	-1.0%

Sorted by number of heavy atoms (lowest first): part of the list above
SMILES	ClpP mod	PINK1 modulator
COc1cccc(-c2n[nH]c3c2C(c2ccccn2)N(C)C3=O)c1 (stereo not given)	-3.6%	0.6%
CN(C)c1ccc(C(CNC(=O)Cc2ccc(Cl)cc2)N2CCOCC2)cc1 (stereo not given)	0.7%	-1.0%
CCc1ccc(C2CC(=O)c3c([nH]c(C(=O)OC4CCCCCC4)c3C)C2)cc1 (stereo not given)	0.5%	1.6%
